NS1 inh – blocks influenza NS1 protein function; S. cerevisiae slowed by influenza A NS1, growth recovery by OD600; AID 2326; 270,000 compounds, 0.4% hits; Potency, µM (highest dose often 46.1 µM), inactives show at the highest dose activity, positive = more growth; note: actives are rising curves; nearly all actives have a fitted effect of over 50% in size
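In this qHTS, NS1 from influenza A is expressed in budding yeast, where it slows growth. Cells are switched from glucose to 2% galactose medium (pH 6.0, -URA), treated with compound, and growth recovery is read at OD600.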
SARS PLP yeast – inhibitors of SARS-CoV papain-like protease in yeast. Potency, µM (titrated, usually from 32.9 µM), for the others: top-dose activity, positive = growth rescue. AID 485353. S. cerevisiae expressing SARS-CoV PLpro, growth rescue; control for the full effect not named in the record. 330,000 compounds, 0.19% hits; note: 0% is about no effect; nearly all actives have a fitted effect of over 55% in size; growth read by luminescence after 48 h
LASV entry inh – inhibitors of Lassa virus binding or cell entry; Lassa virus pseudotype entry inhibition, cell reporter; control for the full effect not named in the record; Potency, µM (series often up to 37.9 µM), for the others: at the highest dose activity change, negative = inhibition, actives largely listed as inhibitors; 300,000 compounds, 1.2% hits; AID 540256; active means well fitted inhibition curve with a large enough effect; inconclusive means small, poorly fitted or top-dose-only effect, or effect the other way; inactive means flat fitted curve, though single readings scatter; tested in HEK293 cells; note: % is set by controls: 0 for no effect and ±100 for the full control effect; nearly all actives have a fitted effect of over 50% in size; luciferase read-out
Marburg entry inh – inhibitors of Marburg virus binding or cell entry. 300,000 compounds, 1.8% hits. Marburg virus pseudotyped entry inhibition, cell reporter; control for the full effect not named in the record; about a third of the inactives were read at about 46 µM. Potency, µM (series often up to 37.8 µM), without a hit: top-dose activity change, negative = inhibition, most hits filed as inhibitors. AID 540276; active = well fitted inhibition curve with a large enough effect; inconclusive = small, poorly fitted or top-dose-only effect, or effect the other way; inactive = flat fitted curve, though single readings scatter; tested in HEK293 cells; about a fifth of its hits are not listed in these tables; note: % is set by controls: 0 for no effect and ±100 for the full control effect; luciferase read-out
Cruzain inh noDet – cruzain (T. cruzi) inhibition without detergent. P25779. purified cruzain, Z-FR-AMC fluorescence, no detergent. Potency, µM, without a hit: max response, negative = inhibition, actives largely listed as inhibitors. 200,000 compounds, 2.3% hits; active = well fitted curve in the direction sought with a large enough effect; inconclusive = small, poorly fitted or top-dose-only effect, or another doubt; inactive = no such curve, though single readings can be large; an effect the other way counts as inactive or inconclusive;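 note: plate controls were enzyme without inhibitor for no effect and buffer without enzyme for full effect; nearly all actives have a fitted effect of over 40% in size; top concentration of the series not given in the record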
Target sequence (P25779 123-467 limits assumed): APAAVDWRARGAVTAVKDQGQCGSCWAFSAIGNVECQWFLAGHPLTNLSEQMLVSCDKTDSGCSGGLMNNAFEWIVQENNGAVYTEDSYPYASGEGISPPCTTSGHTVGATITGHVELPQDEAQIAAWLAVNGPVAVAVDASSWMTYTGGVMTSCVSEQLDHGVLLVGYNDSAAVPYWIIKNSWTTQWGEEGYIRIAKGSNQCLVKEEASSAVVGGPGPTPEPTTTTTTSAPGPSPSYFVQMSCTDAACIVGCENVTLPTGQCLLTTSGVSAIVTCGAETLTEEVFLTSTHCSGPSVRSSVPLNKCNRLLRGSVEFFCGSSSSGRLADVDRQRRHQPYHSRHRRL
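Detergent-free condition (0.00005% Triton X-100) in acetate buffer pH 5.5 with DTT. 1.5 nM enzyme and compound were pre-mixed 15 min, then 2 uM Z-FR-AMC substrate added; reaction progress from fluorescence change between first and third reads (60 s).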
2A StopGo – FMDV 2A StopGo reporter, luciferase signal; human cells with a luciferase reporter of 2A StopGo recoding; control for the full effect not named in the record; 410,000 compounds, 1.2% hits; Potency, µM (doses to about 57.9 µM), for the others: at the highest dose signal change, negative = less light; active = well fitted falling curve with a large enough effect; inconclusive = small, poorly fitted or top-dose-only effect; inactive = no such curve, though single readings can be large or run the other way; tested in HEK293T cells; note: % is set by controls: 0 for no effect and ±100 for the full control effect; nearly all actives have a fitted effect of over 45% in size; luciferase light after 4 h
RE007 growth inh – less growth of the S. pombe RE007 Vpr strain; S. pombe RE007 Vpr strain, BacTiter-Glo ATP luminescence, 24 h; control for the full effect not named in the record; Potency, µM (top dose mostly 92.2 µM), without a hit: at the top dose activity change, negative = less growth; 360,000 compounds, 0.21% hits; active = well fitted falling curve with a large enough effect; inconclusive = small, poorly fitted or top-dose-only effect; inactive = no such curve, though single readings can be large or run the other way;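 note: % is set by controls: 0 for no effect and ±100 for the full control effect; nearly all actives have a fitted effect of over 50% in size; the assay follows cell death caused by Vpr and the record does not say whether a fall means rescue or toxicity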
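Fission yeast strain RE007, carrying one chromosomally integrated HIV-1 vpr copy, was seeded at OD 0.01 in PMG+AL medium with 23 nL pinned compound. After 24 h at 30 °C and 99% humidity, viability was read by BacTiter-Glo luminescence.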
Cruzain Triton – blocks cruzain activity in presence of Triton detergent; AID 1478; purified cruzain, Z-FR-AMC fluorescence, 0.01% Triton; P25779; Potency, µM, for the others: max response, negative = inhibition, actives largely listed as inhibitors; 200,000 compounds, 0.43% hits; active = well fitted curve in the direction sought with a large enough effect; inconclusive = small, poorly fitted or top-dose-only effect, or another doubt; inactive = no such curve, though single readings can be large; an effect the other way counts as inactive or inconclusive;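 note: plate controls were neutral wells for no effect and buffer without enzyme for full effect; nearly all actives have a fitted effect of over 40% in size; top concentration of the series not given in the record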
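Purified cruzain (1.5 nM final) was preincubated with compounds for 15 min at room temperature in 100 mM sodium acetate pH 5.5, 5 mM DTT, 0.01% Triton X-100. Reaction started with 2 uM Z-FR-AMC; AMC fluorescence change over 60 s gave activity.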
Active calls of the source: *; u = inconclusive; x = no result given; & = joins results of further samples; [ ] = remark or other dose. Unless noted, calls come from the whole dose curve; as a rule, active means well fitted rising curve with a large enough effect; inconclusive means small, poorly fitted or top-dose-only effect; inactive means no such curve, though single readings can be large or run the other way. Potency is the fitted concentration of half-maximal effect.

SMILES	NS1 inh	SARS PLP yeast	LASV entry inh	Marburg entry inh	Cruzain inh noDet	2A StopGo	RE007 growth inh	Cruzain Triton
COc1ccccc1C(=O)NCCC(=O)N1CCN(c2ccccc2Cl)CC1	x	0%	23%	-3%	x	u	2%	x
Cc1cccc(NC(=O)C2CCCN(C(=O)NC3CCCCC3)C2)c1C (stereo not given)	-12%	7%	-1%	-22%	-7%	-3%	-2%[3.69 µM]	-2.0%
CCOC(=O)N1CCN(CC(O)c2c[nH]c3ccc(OC)cc23)CC1 (stereo not given)	4%	0%	u	u	x	-23%	-7%	x
COc1ccc(OC)c(C(C)NC(=O)c2ccc(Br)cc2)c1 (stereo not given)	15%	4%	4%	22%	-6%	-16%	16%	-1.2%
CC(c1nc2ccccc2c(=O)[nH]1)N(C)CCOc1ccc(Cl)cc1 (stereo not given)	-11%	0%	x	x	x	u	-23%	x
Cc1sc2ncnc(N3CCC(C(=O)NNC(=O)c4ccccc4Cl)CC3)c2c1C	-11%	3%	-2%	u	x	u	-5%	x
Cc1ccc(-c2nnn(CC(=O)N(C)C3CCCCC3)n2)o1	2%	-1%	20%[46.1 µM]	6%[46.1 µM]	x	-10%	6%	x
Cc1cc(NC(=O)c2ccc(Br)o2)cc(-c2nc3ccccc3o2)c1O	x	x	1%[46.1 µM]	12%[46.1 µM]	-8%	-23%	x	-0.4%
Cc1cc(C)n2c(Nc3cccc(C(F)(F)F)c3)c(-c3ccsc3)nc2n1	x	x	u	u	-3%	-21%	x	-13%
Cc1nc2cc(NC(=O)NCCCO)ccc2o1	-1%	1%	5%	-2%[46.1 µM]	x	18%	6%	x
COC(=O)/C=C1/N/C(=N\c2nc(C)cc(C)n2)N(c2cccc(C)c2)C1=O	-11%	6%	u	-2%	0%	28µM*	-14%	-2.1%
Cc1ccc(S(=O)(=O)N2CCN(C(=O)CN3CCCCC3)C2)cc1	3%	21%[6.58 µM]	4%	14%	3%	10%	4%	2.9%
COc1ccc(N2CC(C)(C)C2=O)cc1	x	-2%	-1%	-7%[46.1 µM]	x	13%	3%	x
COc1ccc(/C=N/NC(=O)C2(O)c3ccccc3-c3ccccc32)cc1	6%	-9%	u	16%	1%	-26%	-6%	-3.8%
O=C(CSc1cccc[n+]1[O-])NC(=O)c1ccc(OC(F)F)cc1	x	0%	16%	-10%[46.1 µM]	x	-17%	26%	x
CCOC(=O)c1ccc(N2C(=O)CC(N3CC(C)OC(C)C3)C2=O)cc1 (stereo not given)	-53%	-28%	8%	4%	-4%	-24%	u	9.3%
O=C(c1ccc2c(c1)OCO2)c1cn(Cc2ccc(F)cc2)c2ccccc2c1=O	x	x	13%[46.1 µM]	-7%[46.1 µM]	-7%	-5%	x	-4.0%
O=Cc1cn(-c2ccc(F)cc2)c2ccccc12	5%	7%	u	18%	5%	12%	-5%	-8.1%
COc1cc(NC(=O)COc2ccc3c(C)cc(=O)oc3c2C)cc(OC)c1OC	-2%	2%	x	x	x	-15%	3%	x
CS(=O)(=O)N(CC(=O)O)c1ccc(C23CC4CC(CC(C4)C2)C3)cc1	-15%	5%	x	x	x	-24%	1%	x
Cc1cccc(C)c1OCC(=O)N1CCc2ccccc2C1	-84%	6%	x	x	x	-1%	2%	x
O=C1C2C3C=CC(C3)C2C(=O)N1CCCO (stereo not given)	7%	3%	10%	4%	-8%	-16%	-20%	0.0%
CN1CCN(NC(=O)c2ccc(S(=O)(=O)N3CCCCCC3)cc2)CC1	x	4%	x	-1%[46.1 µM]	x	6%	14%	x
COC(=O)COc1cccc(NC(=O)c2ccccc2)c1	-30%	-1%	18%	u	-4%	27%	-10%	1.1%
Cc1cccn2cc(-c3ccc(NC(=O)Cc4ccccc4)cc3)nc12	5%	1%	x	x	x	-30%	7%	x
Cc1noc(C)c1CSc1nnc(-c2ccccc2)n1N	-13%	-3%	0%	12%	-4%	-22%	-14%	1.1%
COCc1nnc(NS(=O)(=O)c2ccc(Cl)cc2)s1	13%	1%	8%	-4%	x	5%	0%	x
CCCCN=C(Nc1ccc(Cl)cc1)c1cccnc1	-2%	-2%	0%	4%	5%	-25%	-17%[3.69 µM]	-1.6%
Cc1nc(-c2ccc(F)cc2)sc1CCNC(=O)c1ccccc1C(F)(F)F	x	x	4%[46.1 µM]	x	9%	7%	x	-7.0%
CCOC(=O)c1c(C)c(C(=O)NCC2CCCO2)c(C)n1C (stereo not given)	-2%	-1%	-10%	16%	-8%	13%	9%	5.9%
Cc1cc(C)cc(OCC(=O)OCC(=O)N(CC(C)C)c2c(N)n(Cc3ccccc3)c(=O)[nH]c2=O)c1	x	3%	-21%	-22%	x	-23%	3%	x
Nc1ccc(Oc2ccc3c(c2)C(=O)NC3=O)cc1	-2%	2%	x	x	x	25%	-19%	x
CC(C)(C)C(=O)NC(=S)Nc1ccc(S(=O)(=O)Nc2nccs2)cc1	x	0%	33%[46.1 µM]	u	x	59%[activator]	-22%	x
COC(=O)CNC(=O)c1ccc(OC2CCN(C(=O)C3CC3)CC2)cc1	-2%	1%	12%[46.1 µM]	3%[46.1 µM]	x	19%	-2%	x
N#CCSc1nc2c(c(=O)n1Cc1ccco1)C1(CCCC1)Cc1ccccc1-2	14%	0%	-21%	-29%&-29%[46.1 µM]	u	u	-3%	-2.2%
Oc1c(Br)cc(/C=N/Nc2ccc(Cl)nn2)cc1Br	-29%	-8%	0%	9%	x	-11%	6%	x
Cc1ccc(-c2csc3ncn(CC(=O)N4CCOCC4)c(=O)c23)cc1	-8%	2%	12%	-11%	10%	-10%	-5%	2.4%
Cc1ccc2nc3sc(C(=O)N4CCCc5ccccc54)c(N)c3cc2c1	10%	-2%	u	u	u	12%	-3%	1.2%
O=C(Oc1ccccc1Cl)c1ccc(N2CCOCC2)c([N+](=O)[O-])c1	-4%	-8%	1%	12%	12%	-20%	u	-8.7%
O=C(NCCc1csc(-c2cccnc2)n1)c1cccc(C(F)(F)F)c1	x	x	-19%[46.1 µM]	x	8%	u	x	-8.2%
COc1ccc(C2C(C#N)=C(N)Nc3onc(C(C)(C)C)c32)c(OC)c1 (stereo not given)	-5%	26%	-38%	u	7%	-25%	-4%	-6.9%
COc1cc2c3c(c1OC)C1(C=CC(=NO)C=C1)CC3N(C(C)=O)CC2 (stereo not given)	8%	4%	7%	-8%[46.1 µM]	1%	-16%	-16%	-3.4%
Cc1cc(C)nc(Nc2ccc(Br)cc2C(=O)O)n1	8%	3%	-7%[46.1 µM]	u	x	-17%	-9%	x
O=C(CCC(=O)Nc1ccccc1Cl)NNC(=S)Nc1ccccc1C(F)(F)F	8%	-6%	20%	3%	x	-9%	23%	x
Cc1nn(CCCC(=O)O)c(C)c1[N+](=O)[O-]	x	0%	6%[46.1 µM]	16%[46.1 µM]	x	-10%	1%	x
CC1(C)CC(=O)C2=C(C1)NCN(Cc1ccccc1)C2	-5%	0%	-4%	3%	4%	24%	-1%	0.8%
CSc1ccc(/C=C(/NC(=O)c2ccccc2)C(=O)NCCCn2ccnc2)cc1	-7%	1%	0%[46.1 µM]	u	x	44%[activator]	2%	x
CCOc1ccc(S(=O)(=O)N2CCN(c3c(C)cccc3C)CC2)c2ccccc12	x	x	u	2%[46.1 µM]	u	-13%	x	0.2%
O=S(=O)(c1ccc(Cl)cc1)N1CCC2(CC1)OCCN2S(=O)(=O)c1cccs1	x	-3%	-27%	-50%	x	38%[activator]	-14%	x
O=C(Nc1ccccc1N1CCCCC1)c1cccc([N+](=O)[O-])c1	x	-3%	u	u	x	-22%	22%	x
O=C(NCc1cccnc1)C(=O)Nc1ccc([N+](=O)[O-])cc1	x	9%	14%[46.1 µM]	-24%[46.1 µM]	x	36%[activator]	1%	x
COc1ccc(/C=N\NC(=O)c2ccc(F)cc2)cc1COc1cc(F)ccc1[N+](=O)[O-]	6%	-2%	u	-20%	x	25µM*	-7%	x
COc1cccc(NC(=O)c2ccccc2NS(C)(=O)=O)c1	-7%	4%	u	u	1%	-10%	-7%	11%
COc1ccc(CNC(=O)[C@H](C)NC(=O)C2CCN(C(=O)[C@@H](N)CCSC)CC2)cc1	13%	2%	x	x	x	-10%	14%	x
COc1ccc(CCNC(=O)C2=C(C)C(=O)OC23CCCCC3)c(OC)c1	x	x	2%[46.1 µM]	17%[46.1 µM]	1%	16%	x	0.4%
C/C=C\C(=O)Nc1cccc(C2=NOC3(C2)C[C@H](C(N)=O)N(C(=O)Cc2ccc([N+](=O)[O-])cc2)C3)c1 (stereo not given in full)	-4%	1%	x	x	x	-20%	-1%	x
O=C(CCn1nc(-c2ccccc2)c2ccccc2c1=O)N1CCN(c2ccccc2)CC1	4%	-5%	0%	-4%	16%	0%	-6%	-3.9%
c1ccc(-c2nc(NCC3CCCO3)c3ccccc3n2)nc1 (stereo not given)	7%	0%	u	u	0%	-29%	0%[3.69 µM]	3.9%
COc1cc(-c2[nH]nc3c2C(c2ccco2)C(C#N)=C(N)O3)cc(OC)c1OC (stereo not given)	29%	0%	-8%	7%	-6%	-11%	3%	-5.8%
O=C(CSCc1cccc(Cl)c1)N1CCN(Cc2ccc3c(c2)OCO3)CC1	-86%	-17%	-18%	-6%	4%	-21%	-12%	3.0%

(further entries)
SMILES	NS1 inh	SARS PLP yeast	LASV entry inh	Marburg entry inh	Cruzain inh noDet	2A StopGo	RE007 growth inh	Cruzain Triton
O=C(NC1CCCCC1)C(c1cccnc1)N(CCc1ccccc1)C(=O)Cc1cccs1 (stereo not given)	-2%	-4%	-7%	-27%	3%	6%	-4%	-1.3%
O=C(CSc1ccc2c(c1)OCCO2)NCCN1C(=O)CSC1=O	3%	-7%	u	2%[46.1 µM]	5%	-18%	28%	-1.3%
Cc1csc(NC(=O)CSc2ccccc2F)n1	x	-2%	u	u	x	53%[activator]	-2%	x
Cc1ccc(NC(=O)c2ccc(C)c(S(=O)(=O)N3CCOCC3)c2)nc1	x	-7%	16%	u	x	4%	11%	x
O=S(=O)(NCc1cccnc1)c1ccc(Br)c2ccccc12	7%	4%	4%	-1%[46.1 µM]	x	29%	10%	x
CC(=O)c1ccc(NC(=O)Nc2cccnc2)cc1	5%	13%	x	x	x	10%	-3%	x

From PubChem BioAssay
